AmpC nodet inh – AmpC beta-lactamase inhibition, detergent-free assay | hit rate 1.8% among 71,000 | AID 585 | Potency, µM (top dose mostly 28.7 µM), without a hit: top-dose activity change, negative = inhibition | AmpC nitrocefin hydrolysis, absorbance 480 nm, no detergent; potencies from a single point are estimates; active = falling curve, for most hits resting on a single point; inconclusive = weak or doubtful change; inactive = flat or rising curve; further: % of control where 0% means no effect; about half of the hits show no inhibition at the top dose; a quarter of the inactives give rising signals
Target sequence (P00811 whole entry, looked up): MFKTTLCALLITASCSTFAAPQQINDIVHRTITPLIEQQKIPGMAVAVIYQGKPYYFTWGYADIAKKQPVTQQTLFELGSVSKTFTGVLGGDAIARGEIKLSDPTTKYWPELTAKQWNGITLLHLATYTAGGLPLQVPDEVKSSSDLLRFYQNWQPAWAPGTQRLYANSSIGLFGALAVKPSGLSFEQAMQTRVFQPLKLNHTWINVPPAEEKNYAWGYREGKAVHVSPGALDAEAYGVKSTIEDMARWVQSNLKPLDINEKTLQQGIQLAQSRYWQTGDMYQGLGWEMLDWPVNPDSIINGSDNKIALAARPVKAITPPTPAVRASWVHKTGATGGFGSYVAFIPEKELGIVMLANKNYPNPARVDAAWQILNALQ
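AmpC, 20 mM phosphate pH 7.0; 15 min cpd preinc, RT; start with nitrocefin (800 uM stock); A480 kinetic read, 20 s intervals, 4 min. No-enzyme wells = negative control.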
* marks the source's active call; other numbers are inactive results; ? = inconclusive; [ ] = another dose, or the depositor's remark. Potency means the concentration at half of the fitted maximal effect. The list is partial. The share of hits here may be higher or lower than overall.

Compound | AmpC nodet inh
CCc1cc2ccc(C)cc2nc1SCC(=O)N1CCN(C(=O)c2ccco2)CC1 | 120%
CCCCN1Cc2cc(C(=O)c3cc(F)ccc3O)cnc2NC1=O | -1%
CCCCN1C2CCCC1CC(NC(=O)c1ccc(OC)c(OC)c1)C2 (stereo unspecified) | -12%
COc1ccc(-c2coc3cc(O)cc(O)c3c2=O)cc1 | -13%
CCCCOc1ccc(C(C)NC(=O)C2CCCN(S(=O)(=O)CC)C2)cc1 (stereo unspecified) | 39%
Cc1ccc(-c2nc(CS(=O)CC(=O)NC3CCCC3)c(C)o2)cc1 (stereo unspecified) | 4µM*[single pt active]
CCOC(=O)C1=C2SCCN2C(=O)C(C#N)C1(C)C (stereo unspecified) | 2%
Cn1cccc1C(=O)OCc1csc(-c2ccccc2)n1 | 16%
Cc1cc(S(=O)(=O)NCC(=O)O)ccc1F | -7%
COc1ccc(S(=O)(=O)N2CCC(C(=O)N3CCc4ccccc4C3)CC2)cc1 | 66%
O=C(c1cccc(Cl)c1)N1CCCC(C(=O)N2CCCCCC2)C1 (stereo unspecified) | 28%
O=C1C2ON(c3ccc(Br)cc3)C(c3cccnc3)C2C(=O)N1C1CCCCC1 (stereo unspecified) | 57%
COc1ccc(NC(=O)CSc2nnc(Cc3ccccc3)o2)c(OC)c1 | 13%
O=C(C1CCN(S(=O)(=O)c2cccc3cccnc23)CC1)N1CCN(c2ccccc2)CC1 | 80%
c1ccc(-c2nnc3sc(-c4ccncc4)nn23)cc1 | -7%
O=C(O)c1c[nH]c2cc(OCc3ccccc3)ccc2c1=O | 2%[5.75 µM]
COC(=O)C1=C(O)CSC1=Nc1cccc(C(F)(F)F)c1 | 20%
O=C(Nc1ccccc1C(=O)O)c1ncn[nH]1 | -6%
CCOc1ccc(NC(=O)c2cnc3scc(C)n3c2=O)cc1 | 5%
CCOc1c(Br)cc(C(N)=O)cc1OC | -4%
CCn1cc(C(=O)O)c(=O)c2cnc(N3CCN(C(=O)Nc4ccccc4)CC3)nc21 | -19%
O=S(=O)(Nc1ccc2c(c1)nc1n2CCN(Cc2ccccc2)C1)c1ccc(Cl)cc1 | ?
CC(=O)OC(C)C | -14%
Cc1ccc(C)c2[nH]c(=O)c(CN(CCCN(C)C)C(=O)NCc3ccccc3)cc12 | 45%
CC1CCCCN1CCn1cnc2c([nH]c3ccccc32)c1=O (stereo unspecified) | 4µM*[single pt active]
Cc1c(C(=O)NCCC2=CCCCC2)oc2ccc(S(=O)(=O)N3CCC4(CC3)OCCO4)cc12 | 98%
COc1ccc(NS(=O)(=O)c2ccc(NC(C)=O)cc2)cc1OC | 8%
COc1cc2nc(CN3C(=O)c4ccccc4C3=O)oc(=O)c2cc1OC | -1%
COc1ccc2c(c1)CCC1[C@@H]2CCC2(C)[C@@H](NCCCCCCN3C(=O)C=CC3=O)CC[C@@H]12 (stereo partly specified) | 19%
CCCCCn1c(C(C)NC(=O)CCC)nc2ccccc21 (stereo unspecified) | 51%

Quoted from the listing.
c1ccc(-c2nnc3sc(-c4ccncc4)nn23)cc1 in AmpC nodet inh = -7%
Cc1cc(S(=O)(=O)NCC(=O)O)ccc1F in AmpC nodet inh = -7%
COc1ccc(S(=O)(=O)N2CCC(C(=O)N3CCc4ccccc4C3)CC2)cc1 in AmpC nodet inh = 66%
O=C(O)c1c[nH]c2cc(OCc3ccccc3)ccc2c1=O in AmpC nodet inh = 2%[5.75 µM]

Further records follow.
Compound | AmpC nodet inh
O=C(CSc1ccc2nnc(-c3ccccn3)n2n1)Nc1ccc2c(c1)OCO2 | -3%
CCNC(=O)CP(=O)(c1ccccc1)c1ccccc1 | 10%
N#Cc1c(N)sc(=S)c2c1CCCC2 | -11%
CC(C)(C)OC(=O)NCCc1nnc(SCC(=O)c2ccc(Cl)cc2)o1 | 42%
Cc1ccccc1NC(=O)N1CCCC(c2nc(-c3ccc(C(C)C)cc3)no2)C1 (stereo unspecified) | 44%
Cc1cc(SCC(=O)c2ccccc2)n2nc(C)nc2n1 | 8%
COc1ccc(C(=O)NCc2cccnc2)cc1OC | -3%
COc1cccc(-c2cncnc2Nc2ccccc2)c1 | 38%
CCOC(=O)N1CCC(NC(=O)C2CCN(S(=O)(=O)c3cnc[nH]3)CC2)CC1 | -7%
O=C(NCc1cccnc1)C1CC(=O)N(c2ccc(F)cc2)C1 (stereo unspecified) | 3%
CCC(=O)N1CCc2cc(S(=O)(=O)CCC(=O)NCCC3=CCCCC3)ccc21 | 33%
Cc1nc(NC2=NCN(CC3CCCO3)CN2)nc2ccccc12 (stereo unspecified) | -3%
Cc1cc(=O)n(-c2ccccc2)n1C | -4%[12.8 µM]
CCn1c(=O)cc(OCC(=O)NCCC(C)C)c2ccccc21 | 23%
O=C(NCc1ccccn1)c1cc2n(n1)C(C(F)(F)F)CC(c1ccco1)N2 (stereo unspecified) | 17%
Cc1cc(C)n2c(SC/C(O)=C(\C#N)c3nc4ccccc4[nH]3)nnc2n1 | -10%
Cc1nc2oc3c(NCC4CCCO4)ncnc3c2c2c1COC(C)(C)C2 (stereo unspecified) | 70%
CCCCNc1cc(C(=O)O)cc(S(N)(=O)=O)c1Oc1ccccc1 | -5%[12.8 µM]
O=C(CCn1c(=O)oc2ccccc21)N1CCN(c2ccccc2F)CC1 | 30%
Cc1cc(-c2ccco2)n(CC(=O)NCCN(C)C)n1 | 11%
COc1ccc2[nH]cc(CCNc3ncncc3-c3ccoc3)c2c1 | 17%
O=C(CCC1CCCCC1)Nc1c[nH]c(=O)[nH]c1=O | -4%
N#CC1=C(N)Oc2cc3c(cc2C1c1ccc(Cl)cc1)OCO3 (stereo unspecified) | 1%
COc1cccc(OC)c1OCC(O)CN1CCN(c2ccccc2)CC1 (stereo unspecified) | 34%
COc1cc(CSc2ncn[nH]2)c(OC)cc1CSc1ncn[nH]1 | -4%
COc1ccccc1-c1nc(C(N)=O)c2[nH]c(=O)n(-c3cccc(C)c3)c2n1 | 37%
Cc1occc1-c1nnc(SCC(=O)c2ccc(Cl)cc2)n1C | 4%
N#Cc1nc(COc2cccc(Cl)c2)oc1NCc1ccncc1 | 36%
O=C(CSc1nnnn1-c1ccccc1)Nc1nsc(-c2ccc(Cl)cc2)n1 | 10µM*[single pt active]
COc1ccc(OC)c(NC(=O)CCN2CCCC(C)C2)c1 (stereo unspecified) | 12%
CCCCS(=O)(=O)N1CN(S(=O)(=O)CCCC)C2NC(=O)NC21 (stereo unspecified) | 21%
CCOC(=O)C1CCN(C(=O)c2cc(S(=O)(=O)N3CCOCC3)c(Cl)cc2Cl)CC1 | 90%
CC1CN(c2nc3c(c(=O)[nH]c(=O)n3C)n2Cc2ccccc2F)CC(C)O1 (stereo unspecified) | 20%
O=C(NCC(=O)N(c1ccccc1F)C(C(=O)NCC1CCCO1)c1ccccc1)c1ccco1 (stereo unspecified) | 31%
Cc1ccc(-c2nc(C#N)c(NCc3cccc4c3OCO4)o2)cc1 | -10%
COc1ccc(C(=O)c2c[nH]c3ccccc23)cc1 | -12%
COCCCNC(=O)CSc1ccc(Cl)cc1 | 32%
CC(=O)c1cc(OC(=O)N2CCOCC2)ccc1OC(=O)N1CCOCC1 | 8%
CC(=O)Nc1ccc(S(=O)(=O)N2CCN(CCC#N)CC2)cc1 | 1%
CC(C)c1cc(Nc2cccc(O)c2)cc(C(C)C)c1O | ?
Clc1ccc(C2=Nn3c(nnc3-c3n[nH]c4c3CCC4)SC2)cc1Cl | 68%
COCCOC(=O)c1[nH]c2c(c1C)C(=O)CC(c1ccc(F)cc1)C2 (stereo unspecified) | 21%
CNC(=O)Nc1ccccc1NC(=O)NC | 9%
COc1ccccc1NC(=O)C1=C(C)Nc2nc(-c3cccs3)nn2C1c1cccnc1 (stereo unspecified) | 4%
COCCOc1ccc(C(F)(F)F)cc1NC(=O)COC(=O)c1c(C)noc1C | 72%
COCCn1c(SCC(=O)Nc2sc(C)c(C)c2C#N)nnc1-c1ccc(OC)cc1 | 78%
COc1ccc(S(=O)(=O)C(C#N)c2nc3ccccc3nc2N2CCC(C)CC2)cc1 (stereo unspecified) | -6%
COc1ccc(CN2CCCCCC2)c(C)c1C | 0%
Cn1cccc1C(=O)N1CCC2(CCCN(c3ccccn3)C2)CC1 | 97%
c1ccc(CSc2nnc(-c3ccco3)c(-c3ccco3)n2)cc1 | -20%

Further results follow.
Compound | AmpC nodet inh
CCS(=O)(=O)NCC(c1cccnc1)N1CCN(c2ccccc2OC)CC1 (stereo unspecified) | 66%
COC(=O)c1sc2cnccc2c1N | -4%
CC(NC(=O)Cn1cnc2c1c(=O)n(C)c(=O)n2C)c1ccccc1 (stereo unspecified) | -7%
CCCC(c1nnnn1CS(=O)(=O)c1ccc(C)cc1)N1CCN(c2ccccc2)CC1 (stereo unspecified) | 22%
COC(=O)c1ccccc1NC(=O)c1cc(-c2ccc(OC)c(OC)c2)on1 | 6%
Cc1c(C(=O)NCc2cccnc2)oc2ccc(S(=O)(=O)N3CCCC(C)C3)cc12 (stereo unspecified) | 112%
C=CCc1cccc2cc(C(=O)N(CC)CC)c(=O)oc12 | 14%
COc1ccc2[nH]cc(CCNc3nc(-c4c(C)noc4C)nc4ccccc34)c2c1 | -13%
CCOc1ccc(-c2nnn(CCC(=O)O)n2)cc1OC | -10%
Cc1noc(C)c1CSc1nnc2scc(-c3ccc(Cl)cc3)n12 | 37%
Cc1ccc(-c2nnc(COc3cccc(-n4cnnn4)c3)o2)cc1 | 14%
CCc1c(C)nc2ncnn2c1Nc1ccc(C#N)c(Cl)c1 | -1%
CN(C)CCCNc1c2c(nc3ccc(Cl)cc13)CCCC2 | -6%[5.75 µM]
CCOC(=O)C1=C(C)N=C2SC(CC)C(=O)N2C1c1cccc(F)c1 (stereo unspecified) | 48%
OC(COCC1COc2ccccc2O1)CN1CCc2ccccc2C1 (stereo unspecified) | 36%
COC(=O)c1cccc(NC(=O)CN2CCOCC2)c1 | -8%
CCOC(=O)Nc1ccc2c(c1)ncn2C1CCCCC1 | 19%
Cc1nccc2c1[nH]c1ccccc12 | 29%
COc1ccccc1C1CC(c2ccc(C)cc2)Nc2ncnn21 (stereo unspecified) | 55%
Cc1ccc(NC(=O)C2CCCN(S(=O)(=O)c3c(C)noc3/C=C/N(C)C)C2)cc1F (stereo unspecified) | 44%
O=C(NC(=O)c1ccc(Cl)c(Cl)c1)OC1CCS(=O)(=O)C1 (stereo unspecified) | -11%
CCCC(C(=O)NCC1CCCO1)N(Cc1ccco1)C(=O)CNS(=O)(=O)c1ccc(F)cc1 (stereo unspecified) | 57%
COc1ccc(C2C(=O)N(CCc3ccccc3)CC(=O)N2C2CCCC2)cc1 (stereo unspecified) | 70%
O=C(Cn1c(C(=O)N2CCN(C3CCCCC3)CC2)cc2sccc21)c1ccccc1 | 72%
O=C(Nc1ccon1)c1cnc2sccn2c1=O | -16%
COC(=O)[C@@H]1C[C@H]1[C@@H](NC(=O)c1cc(C)nn1C)c1ccccc1 | 26%
Cc1noc(C)c1S(=O)(=O)N1CCC(Cc2ccccc2)CC1 | 10%
COc1ccc2c(C)c(C(=O)NCC(C)O)oc2c1OC (stereo unspecified) | 22%
COc1cccc(N(CC(=O)NCCSc2ccccc2)S(C)(=O)=O)c1 | 33%
CCOC(=O)c1c(CN2CCOCC2)n(C)c2cc(Br)c(O)c(CN(C)C)c12 | 98%
CC[C@@H]1[C@H]2CCCCN3[C@@H]2[C@@H](C[C@H]3[C@@H]2C[C@H](C)C(=O)O2)[C@@H]2[C@H]1OC(=O)[C@H]2C | 58%
COc1ccccc1-c1cncnc1N(C)Cc1ccco1 | 31%
O=C(CS(=O)(=O)c1cn(Cc2ccc(F)cc2)c2ccccc12)N1CCCCC1 | 52%
O=C(c1ccc(S(=O)(=O)N2CCOCC2)cc1)N1CCN(c2ccccc2F)CC1 | 95%
Cc1noc(C)c1C(=O)Nc1nnc(-c2ccccc2)s1 | -6%
Cc1ccc(S(=O)(=O)OCC(=O)O)cc1 | -4%[5.75 µM]
Cn1c(Cc2csc(N)n2)nnc1SCC(=O)NC1CCCCC1 | 12%
CCCc1[nH]nc2c1C(C1CCCCC1)C(C#N)=C(N)O2 (stereo unspecified) | -19%
Cc1ccc2c(c1)c1ncnc(N3CCN(c4ccccc4)CC3)c1n2C | 61%
CC(C)C(c1nnnn1C1CCCCC1)N1CCOCC1 (stereo unspecified) | 2%
N#Cc1ccc(CN2CCC3(CC2)CCN(C(=O)c2ccncc2)CC3)cc1 | 2%
NCCNCCNCCNCCN | -7%
Cn1c2c(c(=O)n(C)c1=O)C1c3ccccc3OCC1C(C)(C)O2 (stereo unspecified) | 30%
CC(C)C(c1nnnn1Cc1ccccc1)N1CCN(Cc2ccc3c(c2)OCO3)CC1 (stereo unspecified) | 74%
Cc1ccc(NC(=O)COC(=O)c2ccc3c(c2)NC(=O)C2CCCN32)cc1 (stereo unspecified) | 22%
CCOC(=O)C1CCN(Cc2coc3ccc(Cl)cc3c2=O)CC1 | -4%

Part of the list above, field by field:
Cn1c2c(c(=O)n(C)c1=O)C1c3ccccc3OCC1C(C)(C)O2 (stereo unspecified)
  AmpC nodet inh: 30%
CC(C)C(c1nnnn1Cc1ccccc1)N1CCN(Cc2ccc3c(c2)OCO3)CC1 (stereo unspecified)
  AmpC nodet inh: 74%
NCCNCCNCCNCCN
  AmpC nodet inh: -7%
Cc1ccc(NC(=O)COC(=O)c2ccc3c(c2)NC(=O)C2CCCN32)cc1 (stereo unspecified)
  AmpC nodet inh: 22%

Screening results: PubChem BioAssay, National Center for Advancing Translational Sciences (NCATS)
